Mtb bLac sens – beta-lactam sensitization of Mtb H37Rv; M. tuberculosis H37Rv growth with meropenem, percent inhibition; hits of this screen are not shown here; inhibition, % at 25 µM; 330,000 compounds, 0.27% hits;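 active means about 74% or more and at least 40 points above the plate without the antibiotic, then above 30% in a dose series; inconclusive means first-round hits that could not be retested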;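 further: growth measured after seven days incubation then overnight dye step; 0% = bacteria only wells and 100% = bacteria with antibiotic; twin plates without the antibiotic show which effects depend on it; some results filed as inactive read as strong as hits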
Numbers without * were called inactive; u = inconclusive.

Start of the data: the first seven entries as a preview:
SMILES | Mtb bLac sens
COc1cc2cc(Oc3ccc4ccc(=O)oc4c3)c(=O)oc2cc1O[C@@H]1O[C@H](CO)[C@@H](O)[C@H](O)[C@H]1O | 2.1
O=C(CCOc1ccccc1)Nc1ccnn1C1CCN(Cc2ccc(O)cc2)CC1 | 1.1
C[C@H]1CN([C@@H](C)CO)C(=O)c2cc(NS(=O)(=O)c3ccc(F)cc3)ccc2O[C@H]1CN(C)S(=O)(=O)c1cn(C)cn1 | -7.0
Cc1cc(C(=O)N2CCN(S(=O)(=O)c3ccccc3C#N)CC2)c(C)o1 | 4.2
O=C(COC(=O)C1CC2CCCC(C1)C2=O)Nc1ccccc1 (stereo not given) | -7.0
Cc1ccc(S(=O)(=O)N2CCN(C(=O)c3cc(C4CC4)nc4c3cnn4C(C)C)CC2)cc1 | -3.5
CCOC(=O)C1CCN(C(=O)c2cc(-c3ccncc3)nc3ccccc23)CC1 | -5.6

Main list, from the first entry:
SMILES | Mtb bLac sens
COc1cc2cc(Oc3ccc4ccc(=O)oc4c3)c(=O)oc2cc1O[C@@H]1O[C@H](CO)[C@@H](O)[C@H](O)[C@H]1O | 2.1
O=C(CCOc1ccccc1)Nc1ccnn1C1CCN(Cc2ccc(O)cc2)CC1 | 1.1
C[C@H]1CN([C@@H](C)CO)C(=O)c2cc(NS(=O)(=O)c3ccc(F)cc3)ccc2O[C@H]1CN(C)S(=O)(=O)c1cn(C)cn1 | -7.0
Cc1cc(C(=O)N2CCN(S(=O)(=O)c3ccccc3C#N)CC2)c(C)o1 | 4.2
O=C(COC(=O)C1CC2CCCC(C1)C2=O)Nc1ccccc1 (stereo not given) | -7.0
Cc1ccc(S(=O)(=O)N2CCN(C(=O)c3cc(C4CC4)nc4c3cnn4C(C)C)CC2)cc1 | -3.5
CCOC(=O)C1CCN(C(=O)c2cc(-c3ccncc3)nc3ccccc23)CC1 | -5.6
Cc1nc(SCc2nc3c(F)cccc3[nH]2)c2oc3ccccc3c2n1 | -7.8
CC1NC(=O)c2ccccc2-n2c1nc1cc(F)ccc1c2=O (stereo not given) | -0.9
COc1ccc(S(=O)(=O)Nc2ccc3c(c2)C(=O)N([C@H](C)CO)C[C@H](C)[C@H](CN(C)Cc2ccc(C(=O)O)cc2)O3)cc1 | -6.3
C=CCN(CC(=O)NC1CC1)S(=O)(=O)c1cccc(C(F)(F)F)c1 | -1.4
CCCC[C@@H]1C=C(C(=O)O)[C@H](c2ccc(C)cc2)N1S(=O)(=O)c1ccc(C)cc1 | 5.0
O=C(NC1=NCCS1)C1CCN(S(=O)(=O)c2cc([N+](=O)[O-])ccc2Cl)CC1 | -8.7
CCOC(=O)CC[C@H](NC(=O)Cn1cnc2c(OCc3ccccc3)ncnc21)C(=O)OCC | -4.2
CN(C(=O)COC(=O)c1cc2ccccc2oc1=O)C1CCCCC1 | 3.8
COC(=O)c1ccc(CN2CCCC(C(=O)Nc3ccc(-c4ccn[nH]4)cc3)C2)cc1 (stereo not given) | u
CCN(CC)CCNC(=O)c1ccc(NC(=O)c2cn(-c3ccc(F)cc3)nc2-c2cccc(OC)c2)cc1 | 39.2
Nc1ncn(C2O[C@H](CO)[C@@H](O)[C@H]2O)c(=O)n1 (stereo not given in full) | 1.6
Cn1c(-c2ccsc2)c(-c2cccs2)c2cc(-c3ccc4[nH]ccc4c3)ccc21 | -2.1
CC1CN(S(=O)(=O)c2cccc(C(=O)OCC(=O)N3CCCCCC3)c2)CC(C)O1 (stereo not given) | 0.1
O=C(Cn1cnc2c(OCc3ccccc3)ncnc21)NCc1nc2ccccc2[nH]1 | -5.3
Cc1cnc(C(=O)OCC(=O)Nc2ccc(Br)cc2F)cn1 | 0.6
O=C(Cn1c(=O)oc2ccccc21)N1CCN(S(=O)(=O)c2ccccc2)CC1 | 7.8
CN(Cc1ccccc1)C(=O)c1nc[nH]c1C(=O)N1CCN(c2ccccc2)CC1 | -12.1
O=C(NNC(=O)c1ccccc1Cl)c1ccc2c(=O)n3c(nc2c1)CCC3 | 3.0
O=S(=O)(c1ccc(F)cc1)N1CCN(CCOc2ccccc2)CC1 | -8.8
N#Cc1ccc(C2=CC(=O)C[C@H](c3ccc(F)cc3)C2)cc1 | 0.8
O=C([C@@H]1CCCN1C(=O)c1cccs1)N1CCN(S(=O)(=O)c2ccccc2F)CC1 | -7.0
CCCCN(C(=O)c1ccc2c(c1)S(=O)(=O)N=C1CCCCCN12)c1c(N)n(CCCC)c(=O)[nH]c1=O | 2.3
CC(C)C(NC(=O)c1ccccc1)C(=O)OCC(=O)N1CCCC1 (stereo not given) | -1.7
O=C(Nc1cc(S(=O)(=O)N2CCOCC2)ccc1N1CCCC1)c1ccc(F)cc1 | 9.2
Cc1cc(C)n(-c2ccc(C(=O)OCC(=O)Nc3ccccc3F)cc2)n1 | 27.0
COc1ccccc1N1CC(C(=O)OCc2nc(N)nc(Nc3ccccc3)n2)CC1=O (stereo not given) | -4.3
Cc1ccc2cccc(OCC(=O)N(C)CC(=O)Nc3ccc(F)cc3)c2n1 | -6.4
COc1cc(OC)cc(-c2c(C#Cc3ccsc3)c3cc(-c4ccccc4OC)ccc3n2C)c1 | -8.3
O=C(COC(=O)COc1ccc(Cl)cc1)Nc1ccc2c(c1)OCCO2 | 9.0
CC(C)C[C@@H](CNC(=O)OC(C)(C)C)NC(=O)c1nc[nH]c1C(=O)N[C@@H](CC(C)C)C(=O)CNC[C@H](CC(C)C)NC(=O)c1nc[nH]c1C(=O)N[C@@H](Cc1c[nH]c2ccccc12)C(=O)OC(C)(C)C | 8.1
COc1cc(CCC(=O)Nc2ccc(S(=O)(=O)N3CCCC3)cc2)cc(OC)c1OC | 0.0
CC1CCN(C(=O)c2ccc(S(=O)(=O)N3CCCC3)cc2)CC1 | -8.7
C[C@H](NC(=O)Cc1cccc2ccccc12)C(=O)N1CCOCC1 | -1.9
CCCCn1c(N)c(N(CCOC)C(=O)CCC2CCCCC2)c(=O)[nH]c1=O | -6.6
COc1ccc2nc(SC(C)C(=O)NC3(C#N)CCCCC3)[nH]c2c1 (stereo not given) | -7.5
COC(=O)[C@H](Cc1ccc(O)cc1)NC(=O)Cn1ccc(NC(=O)OCc2ccccc2)nc1=O | -1.2
COc1cc(OC)cc(C(=O)NNC(=O)Cc2cccs2)c1 | 2.6
COc1ccccc1C(C)NC(=O)c1ccc(S(=O)(=O)NCc2ccco2)cc1 (stereo not given) | -3.0
C[C@@H]1CN([C@H](C)CO)C(=O)c2cccc(NC(=O)Nc3ccc(F)cc3)c2O[C@H]1CN(C)C(=O)Nc1ccc(C(F)(F)F)cc1 | 81.7
O=C(Cc1ccccc1[N+](=O)[O-])OCC(=O)c1ccccc1Br | 5.3
CN(Cc1ccccc1)C(=O)COC(=O)CCC(=O)c1ccc(Cl)cc1 | -1.3
N#Cc1ccccc1NC(=O)COC(=O)CN1C(=O)C2CCCCC2C1=O (stereo not given) | -5.8
Cc1ccccc1/C=C1\Oc2ccccc2C1=O | 5.3

Among those listed so far, these contain a COOH group.
SMILES | Mtb bLac sens
COc1ccc(S(=O)(=O)Nc2ccc3c(c2)C(=O)N([C@H](C)CO)C[C@H](C)[C@H](CN(C)Cc2ccc(C(=O)O)cc2)O3)cc1 | -6.3
CCCC[C@@H]1C=C(C(=O)O)[C@H](c2ccc(C)cc2)N1S(=O)(=O)c1ccc(C)cc1 | 5.0

Next compounds.
SMILES | Mtb bLac sens
Cc1c(C(=O)OCC(=O)N(C)Cc2ccc(Cl)cc2)oc2ccccc12 | -0.6
COc1ccc(CCNC(=O)C2CCN(S(=O)(=O)c3ccc(C)cc3)CC2)cc1 | -8.2
CC(C)(C)c1ccc(S(=O)(=O)NCC(=O)N2CCCC2)cc1 | 0.1
COCCN(CC(=O)Nc1cccc(C)c1C)C(=O)Cc1sc(C)nc1-c1ccc(F)cc1 | -0.3
CC1(c2ccccc2Cl)NC(=O)N(CC(=O)N2c3ccccc3NC(=O)C2(C)C)C1=O (stereo not given) | 4.1
Fc1ccc2cnc(-c3ccccc3F)cc2c1 | -3.0
Cc1cccc(C(=O)OCC(=O)N2CCCC2=O)c1O | 5.8
COc1ccc(S(=O)(=O)N(C)C)cc1NC(=O)c1ccc2c(c1)NC(=O)C(C)S2 (stereo not given) | -4.4
O=C(COC(=O)c1ccc(S(=O)(=O)N2CCCCCC2)cc1)NCc1ccc(Cl)cc1 | 1.7
O=C(Nc1ccc(F)cc1)C1(S(=O)(=O)c2ccc(Cl)cc2)CC1 | -3.2
O=C(COC(=O)c1ccc(S(=O)(=O)N2CCCC2)cc1)Nc1ccccc1 | -7.6
O=C(Nc1ccon1)c1nc[nH]c1C(=O)N1CCc2ccccc2C1 | 7.1
O=C(O)Cn1c(=O)c(F)cn(C2CCCO2)c1=O (stereo not given) | -4.0
COC(=O)c1ccc(COC(=O)CNC(=O)c2ccc(OC)cc2)cc1 | -2.5
CN(C(=O)c1ccc(NC(=O)Cc2ccc(NC(=O)C3CCN(C(=O)C4CCC4)CC3)cc2)cc1)C1CC1 | 2.6
O=C(CN1C(=O)NC(Cc2ccccc2)C1=O)Nc1ccc(F)c(Cl)c1 (stereo not given) | -6.6
COc1ccc(NC(=O)COC(=O)C2CC2)c(OC)c1 | 28.6
COc1ccccc1N1CC(C(=O)NC2CCCCCC2)CC1=O (stereo not given) | 5.4
CN(Cc1ccc(Cl)cc1)C(=O)COC(=O)c1ccc(-c2ccc(O)cc2)cc1 | -7.9
O=C(NCc1cccc2ccsc12)c1cccs1 | 10.5
Cc1ccc(S(=O)(=O)N2[C@@H](c3ccccc3)C(C(=O)O)=CC[C@H]2c2cccs2)cc1 | -3.7
C[C@H](CO)N1C[C@H](C)[C@@H](CN(C)S(=O)(=O)c2ccccc2)Oc2ccc(NS(=O)(=O)c3ccccc3)cc2C1=O | 5.0
CN1CCN(C(=O)CCCN2C(=O)/C(=C/c3ccc(Cl)cc3)SC2=S)CC1 | -5.5
CCN(CC(=O)Nc1ccc(S(=O)(=O)N2CCCC2)cc1)CC(=O)Nc1ccccc1C(F)(F)F | 7.9
CC(=O)NC(CC(=O)OCC(=O)N1CCN(S(=O)(=O)c2ccc(C)cc2C)CC1)c1ccccc1 (stereo not given) | -1.5
O=C1C(Cl)=CC(=Nc2ccc(O)cc2)C=C1Cl | 3.8
CCCc1cc(=O)oc2c3c(cc(OCC(=O)NCCN4CCOCC4)c12)OC(C)(C)CC3 | -1.4
Cc1cccc(C)c1NC(=O)CNC(=O)c1ccc(COc2ccccc2)cc1 | -9.2
Cc1ccc(S(=O)(=O)N2CCN(C(=O)CCOc3cc(C)ccc3C)CC2)cc1 | -2.8
O=C(OCCOc1ccc(F)cc1)c1ccc(S(=O)(=O)N2CCCC2)cc1 | 6.2
CN(Cc1cccc(F)c1)C(=O)c1cc(=O)[nH]c2ccccc12 | -24.5
O=C(C[C@H]1C/C=C\CC[C@@H](Cc2ccc(F)cc2)C(=O)O[C@@H](c2ccccc2)CNC1=O)N[C@H](CO)Cc1ccccc1 | -1.8
O=C(COc1ccccc1Cl)Nc1nc(-c2ccncc2)cs1 | 1.8
O=C(CN1C(=O)NC2(CCCC2)C1=O)Nc1cc(Cl)ccc1Oc1ccccc1 | -0.9
O=C(C1CCN(c2nc(-c3ccccc3)nc3c2CCC3)CC1)N1CCC(O)CC1 | -2.0
c1nc(CCO[C@H]2CCCCO2)cc2cc3c(cc12)OCO3 | -2.3
CCN(CC(=O)Nc1c(F)cccc1F)C(=O)c1cn2ccccc2n1 | 0.8
CCOc1cccc(CN2CCC(n3nccc3NC(=O)C3CC3)CC2)c1O | u
Cc1cc(C)cc(OCC(=O)N2CCN(c3ncccn3)CC2)c1 | 0.4
O=C(O)CSc1nnc(-c2cccc(S(=O)(=O)N3CCOCC3)c2)n1-c1ccc(F)cc1 | 6.3
NS(=O)(=O)c1ccc(-c2c(-c3ccccc3)sc3ccccc23)cc1 | -0.6
Cc1cc(C)cc(NC(=O)COC(=O)Cc2ccccc2F)c1 | -0.9
CCOC(=O)Cc1csc(NC(=O)c2cc(C)c(C)s2)n1 | 3.9
CCOc1ccc(OCCCC(=O)Nc2cc(Cl)ccc2-n2cncn2)cc1 | 7.2
C[C@H](CO)N1C[C@H](C)[C@@H](CN(C)Cc2ccc(Cl)c(Cl)c2)Oc2c(NC(=O)C3CC3)cccc2C1=O | -0.1
O=C(COc1cccc(F)c1)Nc1nc(-c2ccncc2)cs1 | -0.8
O=C(O)c1cc(S(=O)(=O)NC2CCCc3ccccc32)ccc1O (stereo not given) | -6.6
Cc1ccc(O)c(Nc2ncnc3ccccc23)c1 | -9.6
Cc1cc(NS(=O)(=O)c2ccc(NC(=O)Cc3ccc([N+](=O)[O-])cc3)cc2)nc(C)n1 | -2.2
Cc1cccc(N2N=C(C(=O)OCC(=O)c3ccccc3)CCC2=O)c1 | 0.4

(listing goes on)
SMILES | Mtb bLac sens
Cc1ccc(CNn2cn[nH]c2=S)cc1 | -5.6
CCN1CCN(CC(=O)Nc2cc(S(=O)(=O)N(CC)c3ccccc3)ccc2Cl)CC1 | -1.9
CN(C)Cc1c[nH]c2ccccc12 | -5.5
O=C(N/N=C/c1ccccc1C(=O)O)c1cccc(S(=O)(=O)N2CCCCC2)c1 | -3.8
Cn1c(N)c(C(=O)COC(=O)/C=C/c2ccc(Cl)cc2Cl)c(=O)n(C)c1=O | -1.1
COc1ccc(-c2c(-c3ccccc3OC)oc3ccccc23)cc1F | 11.7
CSc1ccccc1C(=O)OCC(=O)N1CCCCCC1 | 5.2
O=C(CCNS(=O)(=O)c1ccc(F)c(F)c1)NCCN1CCOCC1 | 0.8
COc1ccc(COC(=O)CN2C(=O)NC3(CC(C)CC(C)(C)C3)C2=O)cc1F (stereo not given) | -3.9
COc1ccccc1NS(=O)(=O)c1cc(NC(=O)C2CCCO2)ccc1C (stereo not given) | 1.8
COc1ccc(S(=O)(=O)N2CCN(C(=O)c3ccc4ccccc4n3)CC2)cc1 | -2.4
O=C(CN1CCc2ccccc21)Nc1ccc2c(c1)OCCCO2 | -7.6
CC(C)CN(C(=O)C1CCC1)c1c(N)n(Cc2ccccc2)c(=O)[nH]c1=O | -3.1
C[C@]12c3[nH]c4ccccc4c3CCN1C(=O)C(CC(=O)NCCc1ccccn1)C[C@@H]2C(=O)N1CCOCC1 (stereo not given in full) | -6.5

Bioassay records from PubChem.

Some of the compounds tested; the hit share may differ from the screen's.
